KAT2A inh: GCN5L2 (KAT2A) acetyltransferase inhibition | GCN5L2 HAT assay, ThioGlo1 CoA-SH fluorescence | Q92830 | 390,000 compounds, 0.21% hits | Potency, µM (doses to about 58.9 µM), inactives show at the highest dose activity change, negative = inhibition, usual class: inhibitors; active = well fitted inhibition curve with a large enough effect; inconclusive = small, poorly fitted or top-dose-only effect, or another doubt; inactive = no such curve, though single readings can be large or run the other way
Target sequence (Q92830 whole entry, looked up): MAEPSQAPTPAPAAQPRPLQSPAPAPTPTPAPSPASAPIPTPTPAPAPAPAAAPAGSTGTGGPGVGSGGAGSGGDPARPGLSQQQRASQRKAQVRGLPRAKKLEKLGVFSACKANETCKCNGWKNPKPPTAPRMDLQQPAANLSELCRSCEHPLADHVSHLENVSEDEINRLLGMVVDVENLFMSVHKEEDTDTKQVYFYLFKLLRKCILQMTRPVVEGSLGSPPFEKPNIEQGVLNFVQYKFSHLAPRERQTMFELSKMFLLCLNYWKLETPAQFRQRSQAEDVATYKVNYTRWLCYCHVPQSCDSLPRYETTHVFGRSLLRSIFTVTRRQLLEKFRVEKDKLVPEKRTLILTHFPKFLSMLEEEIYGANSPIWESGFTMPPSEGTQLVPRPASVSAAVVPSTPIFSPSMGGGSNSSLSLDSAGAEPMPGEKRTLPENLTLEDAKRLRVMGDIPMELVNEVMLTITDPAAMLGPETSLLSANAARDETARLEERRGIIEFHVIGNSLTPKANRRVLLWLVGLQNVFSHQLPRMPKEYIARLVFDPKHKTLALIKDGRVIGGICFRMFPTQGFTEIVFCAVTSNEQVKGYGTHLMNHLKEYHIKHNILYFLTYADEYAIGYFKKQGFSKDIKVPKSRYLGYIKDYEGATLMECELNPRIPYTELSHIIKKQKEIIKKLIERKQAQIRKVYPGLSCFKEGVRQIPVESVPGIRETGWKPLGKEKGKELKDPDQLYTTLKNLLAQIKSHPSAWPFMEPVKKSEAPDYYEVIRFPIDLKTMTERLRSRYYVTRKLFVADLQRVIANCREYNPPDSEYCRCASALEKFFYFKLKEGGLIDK
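GCN5L2 (20 nM) in 50mM HEPES pH 7.5, 0.1mM EDTA, 0.01% Tween-20 preincubated 15 min with compounds at room temperature. Reaction started with H3(1-25) 75uM, acetyl-CoA 70uM, ThioGlo1 50uM; CoA-thiol fluorescence (Ex340/Em540) read at 0 and 20 min.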
The depositor's hits bear a star; ? = inconclusive; & = joins results of further samples; [ ] = another dose, or the depositor's remark. % is set by controls: 0 for no effect and ±100 for the full control effect; potency is the fitted concentration of half-maximal effect. The list is partial, and most or all hits are left out here.

canonical_smiles	KAT2A inh
COc1ccc(NC(=O)N(C)C[C@H]2Oc3c(NS(=O)(=O)c4ccc(OC)cc4)cccc3C(=O)N([C@H](C)CO)C[C@@H]2C)cc1	-2.1%
Cc1ccc(N2CCN(S(=O)(=O)c3c(C)noc3C)CC2C)cc1 (stereo unspecified)	-9.1%
COc1ccc(S(=O)(=O)Cc2ccc(C(=O)NCCCN(C)c3ccccc3)o2)cc1	-6.8%
COc1ccc(NC(=O)C2CCC(C(C)(C)C)CC2)cc1S(=O)(=O)N1CCCCC1 (stereo unspecified)	-14.8%
Cc1ccc(OCc2cc(C(=O)N3CCC(Oc4cccnc4)CC3)no2)cc1C	-7.0%
O=C(NCc1ccc(-n2cccc2)cc1)c1cccc(F)c1	-5.9%
CC(C)N(Cc1ccccc1)C(=O)COC(=O)CCC(=O)c1ccc(F)cc1	-1.0%
Cc1c(Cl)cccc1NC(=O)CSc1ncccc1C(=O)Oc1ccccc1Cl	-4.1%
COc1ccc(-c2nn(-c3ccccc3)cc2C#N)cc1	-2.0%
Cc1cccc(N2CC(C(=O)Nc3ccccc3N3CCOCC3)CC2=O)c1C (stereo unspecified)	0.4%
CCCC(c1nnnn1Cc1ccccc1)N1CCC(C(N)=O)CC1 (stereo unspecified)	1.3%
Cc1ccnc(NC(=O)CCCc2ccccc2)c1	1.1%
Cc1cc(-n2nc(C)cc2C)n2ncc(-c3ccccc3)c2n1	2.2%
COc1ccc(-c2csc(C)n2)cc1OC	-4.5%[0.501 µM]
COC(=O)[C@@H]1C[C@@]2(O)[C@H](O)[C@H](O)[C@H](O)C[C@H]2N1Cc1ccc(C(F)(F)F)cc1	17.1%
O=C(Nc1nnc(-c2ccccc2)o1)c1cc(-c2cccs2)nc2ccccc12	-14.2%
O=C(NC1CCCC1)C(c1ccncc1)N(CC1CCCO1)C(=O)Cn1nnc(-c2cccs2)n1 (stereo unspecified)	-15.9%
CCC(C)[C@H](NC(=O)N1CCC(C)CC1)C(=O)O (stereo partly specified)	0.0%
Cc1cccc(NCc2nc3ccccc3n2CCOc2ccccc2C)c1	-6.4%
CCC1CCCCN1Cc1nc2c(c(=O)n(C)c(=O)n2C)n1Cc1ccccc1 (stereo unspecified)	-1.9%
CC(C)c1ccc(NC(=O)CSC2=Nc3ccccc3C3=NC(CC(=O)NCc4cccs4)C(=O)N23)cc1 (stereo unspecified)	-6.5%
COc1ccc(-c2cc(CNC(C)=O)on2)cc1	-2.9%
O=C(O)c1cc(N2C(=O)C3CC=CCC3C2=O)ccc1NCc1cccnc1 (stereo unspecified)	-19.7%[0.501 µM]
COCCCNC(=O)C(=O)NC1CCCCC1C (stereo unspecified)	-5.1%
CC(C)(C)OC(=O)NCCCC[C@@H](C(=O)NCCCCCCCCCCC(=O)N1CCN(C(=O)OC(C)(C)C)CC1)n1cc(CCO)nn1	-3.5%
Cc1cc(C)nc(NC(=O)c2ccc([N+](=O)[O-])c(C)c2)n1	-13.7%
O=C(c1cc(-c2ccc(Cl)c(Cl)c2)on1)N1CCN(c2ccccc2)CC1	-0.7%
Cc1cc(=O)n2c(n1)SCOC2	-1.3%
CCCC(/C=C/c1ccc(OC(C)=O)cc1)=C1/c2ccccc2C(=O)N1c1ccccc1	-13.8%
CC(C)Cc1ccc(C(C)C(=O)N2CCOCC2)cc1 (stereo unspecified)	-11.7%
Cc1ccc(-c2nn(CC(=O)N(C)C)c(=O)c3ccccc23)cc1S(=O)(=O)N(C)C	-2.1%
COC(=O)Cc1[nH]nc2c1C1(CCSCC1)C(C#N)=C(N)O2	-6.1%
O=S(=O)(NCc1ccccc1)c1ccc(S(=O)(=O)N(Cc2ccccn2)Cc2ccco2)cc1	2.9%
O=C(Nc1ccc(Cl)cc1F)c1oc(=O)c2ccccc2c1-c1ccccc1	0.1%
CNC(=O)Nc1ccccc1C(=O)NCc1ccccc1	-7.1%
Cc1cccc(C2=NN(c3ccc(Br)cc3)[C@@H](C(=O)N3CCOC3=O)[C@@H]2C)c1	-19.9%&-24.7%
CC(=O)Nc1ccc(S(=O)(=O)N2CCN(CC(=O)NC3CCCC3)CC2)cc1	1.7%
N#CCN1CCN(CC(=O)Nc2ccc(OCc3ccccc3)cc2)CC1	-3.8%
Cc1ccc(NC(=O)C2CCCN(S(=O)(=O)c3c(C)n[nH]c3C)C2)cc1C (stereo unspecified)	-4.3%
COc1ccc(C(=O)NCCSCc2ccccc2C)cc1	?
CCCc1cc(=O)[nH]c(SCC(=O)Nc2cc(C)on2)n1	0.0%
Cn1c(=O)c2ccccc2n(Cc2ccccc2F)c1=O	1.0%
COc1ccc(C)cc1N(CC(=O)NCCSCc1ccco1)S(=O)(=O)c1ccc(C)cc1	-13.7%
Cc1ccccc1C(=O)N1CCC(C(=O)Nc2ccc3c(c2)OCCO3)CC1	0.0%
C=CCC(CC=C)(NC(=O)c1ccccc1C)c1ccccc1	-11.5%
Cc1cccc(C(=O)Nc2ccccc2SCC2CSc3nc4ccccc4c(=O)n32)c1 (stereo unspecified)	1.6%
COC(=O)C1=C(C)NC(=O)C1(Nc1nccs1)C(F)(F)F (stereo unspecified)	-5.4%
CCN(CC(=O)NCc1cccs1)C(=O)c1cc(S(=O)(=O)NCc2ccccc2)ccc1C	-12.6%
Cc1cc(C)cc(C(=O)NC(=S)Nc2ccc3[nH]c(=O)[nH]c3c2)c1	0.4%
Cc1ccc(N/C=C2\C(=O)C3(C)CCC2C3(C)C)cc1C (stereo unspecified)	-4.0%
CC(NC(=O)C1CCCN1C(=O)OCc1ccccc1)c1ccccc1 (stereo unspecified)	-7.5%
O=C(COc1ncnc2sccc12)NC1CCS(=O)(=O)C1 (stereo unspecified)	?
Cc1cccc(NC(=S)Nc2ccc3cn[nH]c3c2)c1	-2.3%
O=C(c1ccccc1)C1CCN(C(=O)Nc2ccccc2)CC1	-2.1%
Cc1ccc(NC(=O)Cn2c(=O)n(Cc3nc(-c4ccccc4)no3)c(=O)c3cc4c(cc32)OCO4)c(C)c1	-1.7%
Cc1ccc(NC(=O)C2CCN(S(=O)(=O)c3cccc4nonc34)CC2)cc1	-0.8%
COc1cc(OC)cc(C(=O)N[C@H](C(=O)Nc2ccccc2N2CCOCC2)C(C)C)c1	-4.0%
CCCCN(CCCC)c1ccc(C(=O)c2ccccc2C(=O)O)c(O)c1	?
Cc1cnc2c(c1SCC(=O)Nc1ccc(F)cc1F)c(=O)n(C)c(=O)n2C	-0.9%
CCOC(=O)c1cc(-c2ccc(C)cc2)n(CC(=O)Nc2ccccc2F)c1C	-0.2%

More entries follow:
canonical_smiles	KAT2A inh
CN(C)CC/C=C1/c2ccccc2Sc2c(O)cc(Cl)cc21	2.9%
COC(=O)c1sccc1NC(=O)c1ccoc1C	-0.4%
CCC1CCCCN1CCCNC(=O)C1CCN(c2ncnc3c2nc2n3CCCCC2)CC1 (stereo unspecified)	-2.2%
O=C1CN(S(=O)(=O)c2cccc(C(=O)O)c2)c2ccccc2N1	0.5%
COCc1nn2c(N)c(C#N)cnc2c1-c1ccccc1	-4.8%
Cc1c(NC(=O)CSc2ncccn2)c(=O)n(-c2ccccc2)n1C	-1.1%
CCOc1ccc(CCNC(=O)c2cc3c(=O)n(CC)c4ccccc4c3s2)cc1OCC	-2.1%
COC(=O)c1[nH]c2cc(OC)ccc2c1NC(=O)c1ccc2c(c1)OCO2	?
COC(=O)c1ccc(OCC2c3cc(OC)c(OC)cc3CCN2C(=O)C(C)C)cc1 (stereo unspecified)	-7.6%
CNc1nc(N)c([N+](=O)[O-])c(NCCO)n1	-3.9%
COc1ccc(Cl)c(NC(=O)NCCN2CCN(c3ccccc3)CC2)c1	1.2%
CCOC(=O)N1CCN(C(=O)CSCc2ccccc2Cl)CC1	1.6%
CCOC(=O)N1CCN(S(=O)(=O)c2ccc(C(=O)NNc3nc4c(C)cc(C)cc4s3)cc2)CC1	-11.6%
O=c1c2ccccc2n(Cc2cccc(Cl)c2)c(=O)n1Cc1ccccc1	2.1%
COc1ccc(NC2CCCN(C(=O)CSc3ccccc3)C2)cc1 (stereo unspecified)	1.5%
O=C(Nc1ccc(NC(=O)C2CC2)nc1)c1cccnc1	-7.1%
COc1cc(NC(=O)CCc2c(C)n(C)c3cc(-c4ccccc4C)nn3c2=O)cc(OC)c1OC	-0.6%
COc1ccc(CCn2c(C3CCCCC3)nc3c(c(=O)c4ccccc4n3C)c2=O)cc1	2.7%
O=c1[nH]c2cc3c(cc2cc1CN(CC1CCCO1)S(=O)(=O)c1ccccc1)OCCO3 (stereo unspecified)	1.1%
Cc1ccsc1C1Nc2ccc3ncccc3c2C2=C1C(=O)CCC2 (stereo unspecified)	-5.0%

Retrieved by structure from above, two records:
canonical_smiles	KAT2A inh
COC(=O)c1ccc(OCC2c3cc(OC)c(OC)cc3CCN2C(=O)C(C)C)cc1 (stereo unspecified)	-7.6%
COC(=O)c1sccc1NC(=O)c1ccoc1C	-0.4%

Next part:
canonical_smiles	KAT2A inh
CC1CCC(=C(C#N)C(=O)Nc2cccc(Cl)c2)CC1 (stereo unspecified)	-9.8%
C=CCNS(=O)(=O)CC12CCC(CC1=O)C2(C)C (stereo unspecified)	0.1%
CNC1=CC(=O)CC(c2ccccc2)C1 (stereo unspecified)	-1.0%
CC(C)CCn1c(=O)c2cccnc2n(CC(=O)Nc2ccc(F)cc2)c1=O	-0.7%
CCOc1ccccc1CNC(=O)c1[nH]c2ccccc2c1Sc1ccccc1	-5.6%
CN(CC(O)Cn1c2ccccc2c2ccccc21)S(C)(=O)=O (stereo unspecified)	-5.9%
OC1(c2ccccc2)CCN(Cc2ccccc2)C2CCCCC21 (stereo unspecified)	1.6%
Cn1nnnc1SCC(=O)Nc1nc2c(F)c(F)c(F)cc2s1	-0.6%
CCN(CC)C(=O)c1ccc2nc3ccccc3nc2c1	-7.1%
CNc1ccc(C(=O)OCC(=O)Nc2ccnn2C(C)C)cc1[N+](=O)[O-]	0.3%
O=C(NNC(=O)C1CCC1)c1ccc(Cl)cc1	3.3%
COc1ccc(Br)cc1C(=O)Nc1ccc(-c2nc3ncccc3o2)cc1C	-4.4%
O=C(O)COc1ccccc1/C=N/NC(=O)C(O)c1ccccc1 (stereo unspecified)	-16.1%
CCN1C(=O)C(CC(=O)Nc2ccc(F)cc2)N(Cc2cccs2)C1=S (stereo unspecified)	2.8%
O=C(CSc1nnc(-c2ccccc2)n1Cc1ccccc1)NC1CC1	0.4%
COc1ccccc1CNC(=O)C(C)c1ccc([N+](=O)[O-])cc1 (stereo unspecified)	-3.5%
O=S(=O)(c1ccc(Br)s1)N1CCNCC1	-4.7%
O=C(NCC(c1cccs1)N1CCOCC1)c1cccnc1 (stereo unspecified)	-0.2%
Cc1ccccc1Nc1nc(N)nc(COC(=O)c2ccc(S(=O)(=O)N(C)C)cc2)n1	-5.3%
Cc1cc(NC(=O)C2C3C(=O)N(c4cccnc4)C(C(=O)NC(C)(C)C)C34C=CC2(C)O4)no1 (stereo unspecified)	-0.3%
COc1cc(Nc2nc(SCc3ccc(Cl)cc3)nc3ccccc23)cc(OC)c1	-7.2%
Cc1ccccc1NC(=O)N(CCc1nc2ccccc2[nH]1)Cc1ccccc1	-1.0%
O=C(O)CN1C(=O)COc2ccc(S(=O)(=O)N3CCCCCC3)cc21	-6.1%
O=C(Nc1c(C(=O)NCc2ccco2)cnn1-c1ccccc1)c1ccc(F)cc1	?
CC1CCCN(c2cc(N(C)CCO)c([N+](=O)[O-])c3nonc23)C1 (stereo unspecified)	-7.2%
COc1cc(CC(=O)Nc2cccc(S(=O)(=O)N(C)c3ccccc3)c2)cc(OC)c1OC	-5.7%
CCc1ccc(C(=O)NNC(=O)Cn2c(=O)cnc3ccccc32)cc1	-1.6%
CCN(CC)CCN(C(=O)Cn1nnc(-c2ccc(OC)c(OC)c2)n1)C(C(=O)NC1CCCC1)c1ccc(F)cc1 (stereo unspecified)	0.5%
O=C(NCCCCCCOC1=NS(=O)(=O)c2ccccc21)C(=O)Nc1ccccc1	-4.4%
CCN(C)Cc1c(C(=O)N2CCc3ccccc3C2)nc2ccc(Cl)cn12	0.0%
CN1CCN(C(CNC(=O)C(=O)Nc2ccc(Cl)cc2)c2cccnc2)CC1 (stereo unspecified)	-5.7%
CC(=O)N1CCN=C1SCc1ccccc1F	-13.0%
CCOC(=O)c1ccc2c(c1)N(Cc1cccc(OC)c1)C(=O)c1ccccc1S2(=O)=O	-17.0%
CCCCOc1ccc(C2c3c(oc4ccccc4c3=O)C(=O)N2c2nc(C)c(C(=O)OCC)s2)cc1OC (stereo unspecified)	-3.6%
CC(CN1CCCC1)OC(=O)c1ccc(Cl)cc1Cl (stereo unspecified)	3.8%

Not a retest: 4 of the compounds above.
canonical_smiles	KAT2A inh
CC(=O)N1CCN=C1SCc1ccccc1F	-13.0%
CCOC(=O)c1ccc2c(c1)N(Cc1cccc(OC)c1)C(=O)c1ccccc1S2(=O)=O	-17.0%
CCCCOc1ccc(C2c3c(oc4ccccc4c3=O)C(=O)N2c2nc(C)c(C(=O)OCC)s2)cc1OC (stereo unspecified)	-3.6%
CC(CN1CCCC1)OC(=O)c1ccc(Cl)cc1Cl (stereo unspecified)	3.8%

Source: PubChem
